Assay outcomes: PubChem, several laboratories
Ecoli rRNA inh – reduced GFP signal of wild-type E. coli, primary screen, bacterial rRNA inhibitor project, GFP/RFP fluorescence, OD600, single point | E. coli WT GFP vs humanized-ribosome RFP mutants, 24 h; stronger effect = lower value; DMSO median 0, no signal -100 | GFP signal change (wild-type ribosome), % (test concentration not listed) | 350,000 compounds, 1.6% hits;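 active means significant combined selectivity score with lowered wild-type GFP, culture density cut under 30%, mutant RFP and density less affected; inactive means any of these conditions unmet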; further: one replicate is shown; some compounds called inactive have numbers as strong as hits
Ecoli growth – E. coli growth inhibition, primary screen, OD600; Escherichia coli growth, 23 h; stronger effect = lower value; OD600 absorbance (test concentration not listed); 330,000 compounds, 0.21% hits;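 active means OD600 absorbance below the run mean of sample wells minus 3.6 SD, in any replicate, cut at about 0.56 in these data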;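 further: stock transfer was 300 nL into about 60 µL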
MLL AF4-AF9 inh – inhibitors of AF4 peptide binding to AF9, primary screen, biochemical, AlphaScreen, biotin-AF4 peptide, FLAG-AF9, single point. Protein AF-9 (Homo sapiens), P42568. inhibition, % at 10 µM. 350,000 compounds, 0.47% hits;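 active means every replicate reaching a set inhibition limit, whatever the replicate mean, cut at about 25% in these data; inconclusive means mean inhibition reaches that limit but some replicates miss it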;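 further: 0% = plate neutral control median and 100% = total signal loss; the record names both 10 and 1 µM as test concentration; the first replicate is given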
Target sequence (P42568 whole entry, looked up): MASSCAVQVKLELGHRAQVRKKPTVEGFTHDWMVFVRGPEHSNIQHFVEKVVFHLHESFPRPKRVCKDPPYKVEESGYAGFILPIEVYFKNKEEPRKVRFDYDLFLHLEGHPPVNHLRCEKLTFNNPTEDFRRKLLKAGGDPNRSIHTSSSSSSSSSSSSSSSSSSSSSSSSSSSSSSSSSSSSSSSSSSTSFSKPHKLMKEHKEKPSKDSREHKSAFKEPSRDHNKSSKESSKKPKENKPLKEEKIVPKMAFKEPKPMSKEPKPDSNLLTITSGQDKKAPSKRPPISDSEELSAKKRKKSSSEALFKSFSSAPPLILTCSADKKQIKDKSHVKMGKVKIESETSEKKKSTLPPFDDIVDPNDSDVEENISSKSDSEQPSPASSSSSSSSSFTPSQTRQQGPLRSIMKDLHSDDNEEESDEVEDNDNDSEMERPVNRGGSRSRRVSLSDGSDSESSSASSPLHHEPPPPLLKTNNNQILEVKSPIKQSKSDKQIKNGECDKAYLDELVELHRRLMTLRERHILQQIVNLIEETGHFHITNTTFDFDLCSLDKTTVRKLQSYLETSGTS
Beta cell apopt – inhibitors of cytokine-induced beta cell apoptosis, primary screen, luminescence; 300,000 compounds, 0.8% hits; protection from apoptosis, % (concentration not given with the values); INS-1E cytokine-induced death, ATP luminescence, 48 h; percent of positive-control rescue, neutral wells zero;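 active means all replicates at 75% or more, or half of them and the mean; inconclusive means half reach 75% but not the mean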;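 further: 0% = cytokine-treated negative control wells and 100% = positive control rescue; higher means more ATP so stronger rescue from cytokine killing; wells of about 40 µL received 100 nL stock; the first replicate is given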
A1 inh – caspase 3/7 activation in MEF A1-2A-BIM cells, primary screen, A1 inhibitor project, cell-based, luminescence, HTS; Caspase-Glo 3/7 luminescence, 3 h; percent of clofoctol response, vehicle zero; caspase activation, % (concentration not given with the values); 330,000 compounds, 0.066% hits; AID 2462, 2010;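 active means over half of replicate activation scores above 10%, or exactly half above 10 with the replicate mean above 10; inconclusive means replicate mean below 10 yet half the replicates above 10; inactive means over half of replicates below 10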;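 further: wells of about 30 µL received 50 nL stock; many hits fall short of the cut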
T cruzi repl – inhibitors of intracellular T. cruzi growth, primary screen, luminescence, NIH3T3 host cells; T. cruzi beta-gal in NIH3T3, 90 h; inhibition, % (concentration not given with the values); 300,000 compounds, 1.4% hits;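 active means mean inhibition across valid replicates above about 55%, limit read from the data; inconclusive means mean below that limit but half or more replicates reach it; inactive means mean below it, under half of replicates reach it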;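 further: signal also drops with host cell toxicity which is not excluded here; 0% = plate median of DMSO wells and 100% = zero luminescence signal; higher percent means less beta-gal luminescence so fewer parasites; stock transfer was 50 nL into about 50 µL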
UCH37 inh – inhibitors of human UCH37 deubiquitinase, primary screen, biochemical, Ub-AMC cleavage, fluorescence; AID 588478, 2011; purified proteasome/UCH37; inhibition, % (concentration not given with the values); 330,000 compounds, 0.33% hits;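 active means mean of two replicates above 20%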;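 further: 0% = compound-free wells with enzyme and 100% = wells lacking proteasome; stock transfer was 100 nL into about 20 µL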
Target sequence (Q9Y5K5 whole entry, looked up): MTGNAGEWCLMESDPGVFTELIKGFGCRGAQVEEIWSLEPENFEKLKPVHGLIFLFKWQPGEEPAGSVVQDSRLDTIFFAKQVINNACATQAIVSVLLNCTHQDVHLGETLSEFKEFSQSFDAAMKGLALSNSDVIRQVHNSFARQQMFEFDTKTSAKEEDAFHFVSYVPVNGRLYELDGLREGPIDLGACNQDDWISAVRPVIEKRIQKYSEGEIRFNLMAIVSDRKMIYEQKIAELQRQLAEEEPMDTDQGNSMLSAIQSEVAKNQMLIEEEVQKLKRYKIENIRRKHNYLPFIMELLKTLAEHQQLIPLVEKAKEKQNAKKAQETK
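system = Proteasome-associated human UCH37 deubiquitinase | amount = 0.15 nM proteasome as dispensed | medium = pH 7.4 Tris-HCl (50 mM) with ovalbumin, ATP-MgCl2, DTT | incubation = 30 min preincubation with enzyme, 25 min cleavage at room temperature | detection = AMC fluorescence 355/460 nm | read-out basis = percent inhibition | controls = no-proteasome and no-compound wells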
FGF22 binding – binders of human FGF22 protein, primary screen, FGF22 synaptogenesis inhibitor project, biophysical, thermal shift, single point; Fibroblast growth factor 22 (Homo sapiens), Q9HCT0; recombinant FGF22 thermal shift, SYPRO orange fluorescence; percent of sucrose octasulfate shift, DMSO zero; calls only at 9.99 µM; 340,000 compounds, 1.5% hits; AID 651658, 2012;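 active means melting point raised past a set limit in the mean and every replicate; inconclusive means no clear call; three in four hits are not shown here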
Target sequence (Q9HCT0 whole entry, looked up): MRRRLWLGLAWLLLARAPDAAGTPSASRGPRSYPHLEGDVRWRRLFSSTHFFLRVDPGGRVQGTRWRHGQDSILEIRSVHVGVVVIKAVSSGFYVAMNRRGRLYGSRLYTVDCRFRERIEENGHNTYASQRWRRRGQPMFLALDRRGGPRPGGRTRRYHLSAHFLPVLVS
Ecoli rRNA inh OD600 – recorded beside Ecoli rRNA inh, whose call it bears; OD600 change, %; measured here: OD600 growth;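 optical density of the mix in the first replicate; 0 = DMSO median and -100 = no signal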
Ecoli rRNA inh RFP – second read-out of Ecoli rRNA inh, no call of its own (marks repeat the call); RFP signal change, %; measured here: RFP humanized mutant strains;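 first replicate; 0 = DMSO median and -100 = no signal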
* hit, by the source's call; i = inactive; ? = inconclusive; · = no result given.

Structure	Ecoli rRNA inh	Ecoli rRNA inh OD600	Ecoli rRNA inh RFP	Ecoli growth	MLL AF4-AF9 inh	Beta cell apopt	A1 inh	T cruzi repl	UCH37 inh	FGF22 binding
c1ccc2c(c1)nnn2-c1ncnc2sc3c(c12)CCCC3	·	·	·	0.68	·	5	0.1	-11	-18	·
COc1ccc2ccccc2c1/C=N/NC(=S)NCCN1CCOCC1	-13	-6	-1.7	·	?	-5	-0.7	1	·	i
COc1cc(C(=O)Nc2ccc(NC(=O)c3ccccc3Cl)nc2)cc(OC)c1OC	0	-5	1.2	0.68	-2.1	11	1.7	0	1.6	i
CN(C)S(=O)(=O)c1ccc(C(=O)/C=C/c2cccnc2)cc1	9	5	-1.9	0.67	0.4	1	0.4	-16	3.0	i
COc1ccc(N2CCN(C(=O)CSc3nc4c(c(=O)n(C)c(=O)n4C)n3C(C)C)CC2)cc1	·	·	·	0.67	·	-21	0.8	-1	1.7	·
Cc1ccc(C(=O)N2CCN(c3ccc(NC(=O)c4cccnc4Cl)cc3)CC2)cc1	-6	-6	0.7	0.68	3.2	2	-0.9	19	1.2	i
CCOc1ccc2cc(C(=O)c3ccccc3)c(=O)oc2c1	14	10	-1.7	0.68	-2.6	5	-0.6	2	1.7	i
Cc1ccc(-c2cc(=O)[nH]c(NCc3ccccc3)n2)cc1	3	10	2.1	0.71	-0.6	-8	0.1	-16	-34	i
O=c1c(-c2nn[nH]n2)coc2ccc(Cl)cc12	-18	10	-0.7	0.71	-2.3	2	0.0	-8	3.2	i
O/C(=C\c1ccc2ccccc2n1)c1ccc(O)cc1O	0	-16	-1.5	0.74	-1.4	1	-7.8	-12	5.2	i
O=C(CN1CCN(C(=O)C2CCCO2)CC1)Nc1ccc(Br)cc1 (centres undefined)	2	14	-0.3	0.73	0.8	-9	-0.1	7	1.4	i
Cc1ccc(CNC(=O)C2(S(=O)(=O)c3ccccc3)CC=CC2)cc1	·	·	·	·	·	-7	-1.1	-16	1.6	·
Clc1cc2nc(-c3cccnc3Cl)[nH]c2cc1Cl	-1	-21	-0.9	0.68	-0.3	9	-6.9	-3	-17	i
Cc1cccc(N2CCN(C(=O)CCS(=O)(=O)c3ccc(Br)cc3)CC2C)c1 (centres undefined)	-9	-8	-0.8	0.69	-1.9	-2	0.0	4	4.2	i
CCn1c(SCC(=O)Nc2c(C#N)cnn2-c2ccccc2)nnc1-c1cccs1	·	·	·	0.73	-1.5	1	2.0	-4	-0.6	i
CNC(=O)NC(=O)COc1c(F)c(F)cc(F)c1F	5	6	-0.6	0.73	1.6	5	-0.2	-7	2.8	·
CC1CCCCC1NC(=O)COC(=O)COc1ccccc1F (centres undefined)	13	15	0.0	0.72	2.1	-1	-0.2	·	0.4	i
Cc1ccc(C2(C)NC(=O)N(CC(=O)c3ccc4c(c3)OCCO4)C2=O)cc1 (centres undefined)	-1	-6	-0.6	0.69	-0.8	-3	0.6	·	-1.5	i
N#CC1(NC(=O)CN2CCN(S(=O)(=O)c3ccccc3F)CC2)CCCC1	26	-10	0.0	0.68	·	-2	-0.2	0	0.0	i
CN(C)C(CNC(=O)c1cccc(S(=O)(=O)NCc2ccccc2)c1)c1ccco1 (centres undefined)	13	12	-0.7	0.68	2.5	-1	0.1	9	3.3	i
CCCn1nc(C(=O)NCCc2ccc(S(N)(=O)=O)cc2)c2ccccc2c1=O	·	·	·	0.67	·	1	2.1	-9	1.4	·
COc1ccc(NC(=O)CN2CCN(c3ccc(Cl)cc3)CC2)c(OC)c1	·	·	·	0.73	·	2	0.2	10	1.4	·
COCCNC(=O)c1onc(CSc2ccncc2)c1C(=O)NCCOC	2	-4	-1.1	0.69	-4.0	-6	0.1	-22	1.3	i
Cc1ccc(OCCSc2nc(N)cc(N)n2)cc1	-7	-18	-4.1	0.58	1.9	3	-1.8	-5	-5.2	i
Cc1nn(C(C)C(=O)NCCCN2CCCCCC2)c(=O)c2c1sc1ccccc12 (centres undefined)	-3	13	14	0.68	14	-2	-1.0	29	-1.7	i
COc1ccc(C)cc1NC(=O)C(=O)NNC(=O)c1ccco1	·	·	·	0.7	·	1	0.0	-15	2.2	·
c1ccc(-c2cn(C[C@H]3CC[C@H](Cn4cc(-c5ccccn5)nn4)O3)nn2)nc1	6	2	-13	·	1.0	3	0.5	-7	1.5	i
CCOC(=O)C1CCN(c2cc3c(cc2NC(=O)c2ccccc2Br)n(C)c(=O)n3C)CC1	-20	-34	-1.0	0.68	12	8	2.0	-5	2.6	i
Cc1cc(C(=O)OCC(=O)Nc2ccccc2Br)c(C)o1	2	-23	-4.0	0.7	0.2	1	1.9	·	2.7	i
CCC1CCCCN1S(=O)(=O)c1ccc(C(=O)N(CCCN(C)C)c2nc3cc4c(cc3s2)OCO4)cc1 (centres undefined)	·	·	·	0.63	12	-5	1.9	24	4.6	i
COc1ccc(OC)c(NC(=O)CCNS(=O)(=O)c2cc(Br)cnc2N)c1	-4	-5	-0.3	0.69	3.6	-4	-0.6	-7	6.0	i
Cc1ccc2oc(=O)c3cnn(CC(=O)N(CCCN4CCOCC4)Cc4ccco4)c3c2c1	1	4	5.6	0.68	0.1	1	-0.6	·	2.4	i

As a short view, some entries already given:
Structure	Ecoli rRNA inh	Ecoli rRNA inh OD600	Ecoli rRNA inh RFP	Ecoli growth	MLL AF4-AF9 inh	Beta cell apopt	A1 inh	T cruzi repl	UCH37 inh	FGF22 binding
c1ccc2c(c1)nnn2-c1ncnc2sc3c(c12)CCCC3	·	·	·	0.68	·	5	0.1	-11	-18	·
COc1ccc2ccccc2c1/C=N/NC(=S)NCCN1CCOCC1	-13	-6	-1.7	·	?	-5	-0.7	1	·	i
COc1cc(C(=O)Nc2ccc(NC(=O)c3ccccc3Cl)nc2)cc(OC)c1OC	0	-5	1.2	0.68	-2.1	11	1.7	0	1.6	i
CN(C)S(=O)(=O)c1ccc(C(=O)/C=C/c2cccnc2)cc1	9	5	-1.9	0.67	0.4	1	0.4	-16	3.0	i
COc1ccc(N2CCN(C(=O)CSc3nc4c(c(=O)n(C)c(=O)n4C)n3C(C)C)CC2)cc1	·	·	·	0.67	·	-21	0.8	-1	1.7	·

Next section
Structure	Ecoli rRNA inh	Ecoli rRNA inh OD600	Ecoli rRNA inh RFP	Ecoli growth	MLL AF4-AF9 inh	Beta cell apopt	A1 inh	T cruzi repl	UCH37 inh	FGF22 binding
NS(=O)(=O)c1ccc(CCNC(=O)C2CCN(C(=O)Nc3ccccc3)CC2)cc1	8	12	0.6	0.67	-4.4	1	1.5	·	2.3	i
COC(=O)c1ccc(N2CCCCC2)c(N)c1	0	-7	-1.9	0.64	3.1	-3	-2.3	-4	-19	i
CN1C(=O)c2ccccc2C(C(=O)NCc2ccco2)C1c1c[nH]c2ccccc12 (centres undefined)	·	·	·	0.74	·	-3	0.7	10	1.9	·
CCCC(=O)Nc1ccc(NC(=O)c2cccc(OC)c2)nc1	·	·	·	0.63	·	0	-12	6	1.2	·
O=C(N1CCN(c2ccccn2)CC1)C(Cl)(Cl)Cl	·	·	·	0.65	·	·	1.2	2	1.4	·
Cc1ccccc1C(=O)NC(C(=O)Nc1nc2c(s1)CCCC2)C(C)C (centres undefined)	5	4	-5.5	0.68	-3.4	-5	-0.4	4	1.1	i
Cc1ccc(NS(=O)(=O)c2cccc(C(=O)N3CCCCCC3)c2)cc1	-12	-37	-5.6	0.69	?	8	-0.1	8	0.9	i
COc1cccc(C2=NOC(C(=O)Nc3ccc4c(c3)OCO4)C2)c1OC (centres undefined)	2	2	2.3	0.65	-9.7	3	0.6	-4	-2.1	i

Random excerpt: 2 compounds from above
Structure	Ecoli rRNA inh	Ecoli rRNA inh OD600	Ecoli rRNA inh RFP	Ecoli growth	MLL AF4-AF9 inh	Beta cell apopt	A1 inh	T cruzi repl	UCH37 inh	FGF22 binding
O=C(N1CCN(c2ccccn2)CC1)C(Cl)(Cl)Cl	·	·	·	0.65	·	·	1.2	2	1.4	·
COC(=O)c1ccc(N2CCCCC2)c(N)c1	0	-7	-1.9	0.64	3.1	-3	-2.3	-4	-19	i

(continued)
Structure	Ecoli rRNA inh	Ecoli rRNA inh OD600	Ecoli rRNA inh RFP	Ecoli growth	MLL AF4-AF9 inh	Beta cell apopt	A1 inh	T cruzi repl	UCH37 inh	FGF22 binding
C=CCSc1nc2ccccc2n1Cc1nnc(-c2cccs2)o1	·	·	·	0.67	·	1	0.6	10	-36	·
Nc1c(Cl)ncnc1N/N=C/c1ccncc1	6	8	0.1	·	·	0	-0.8	0	·	i
Cc1ccc(NC(=O)C2C3C=CC4(O3)C2C(=O)N(CCN2CCOCC2)C4C(=O)NC2CCCCC2)cc1C (centres undefined)	2	4	-0.7	0.68	2.8	-3	-0.3	-5	0.9	i
COc1cc(OC)cc(C(=O)NNC(=O)CCc2nc3ccccc3c(=O)[nH]2)c1	7	17	2.0	0.71	-0.8	-1	0.3	·	-0.5	i
CN(c1ccccc1)S(=O)(=O)c1cccc(C(=O)NCc2ccccc2)c1	-34	-57	-2.8	0.65	-0.1	11	0.3	·	4.0	i
COc1ccc(C(=O)N2CCN=C2c2ccccc2)cc1OC	·	·	·	0.72	·	-2	0.4	-3	1.3	·
Cn1c(C(=O)N(Cc2ccccc2)Cc2cccs2)cc2sccc21	·	·	·	0.75	·	2	0.4	17	-0.9	·
CCCCOC(=O)Nc1ccc(S(=O)(=O)Nc2nccs2)cc1	5	4	-5.8	0.71	-0.2	-3	0.3	-3	5.1	i
CC1=CN2C(=N)/C(=C/c3ccc(C)o3)C(=O)N=C2S1	·	·	·	0.68	·	-3	-10	-5	5.6	·
O=C1CN(C(=O)COC(=O)CCS(=O)(=O)c2ccccc2)c2ccccc2N1	2	10	-0.6	0.66	1.6	-3	0.9	·	1.2	i
COc1ccc(NC(=O)Nc2nnc(C(C)C)s2)cc1	·	·	·	0.69	·	-8	0.1	19	2.3	·
Cc1ccc(S(=O)(=O)N2CCN(CC(=O)NC3CCCc4ccccc43)CC2)c(C)c1 (centres undefined)	·	·	·	0.69	·	2	2.3	19	0.3	·
COc1cccc(CN2CC(C(=O)NCCc3ccc(C)s3)CCC2=O)c1 (centres undefined)	5	1	-2.8	0.65	-1.2	2	1.0	-4	0.6	i

These rows are one share of the data; count on the stated rates, not on these rows.
